Sa ugtP lethal: compounds lethal to S. aureus RN4220 ugtP deletion mutant; growth inhibition, % (concentration not given with the values); OD600 growth, 16 h; some inactives read as strong as hits; 0.54% of 330,000 active;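 active = z-score under -3 and OD600 up to 0.15 on both plates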;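 also: plate controls were untreated wells for no effect and antibiotic for full effect; wells of about 80 µL received 100 nL stock; the first replicate is given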
BJeLR viability: BJeLR cell viability loss. BJeLR (HRASV12) viability, CellTiter-Glo ATP luminescence, 48 h; reference of the scale not given here. inhibition, % (test concentration not listed). 0.17% of 300,000 active. AID 1554;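 active = replicate mean above 50%; inconclusive = above 50% but judged a plate artefact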;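 also: 50 nL library stock added to about 25 µL; numbers are from one replicate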
RN4220 kill: S. aureus RN4220 growth inhibition; 0.33% of 330,000 active; inhibition, % (no concentration beside the values); OD600, 16 h;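 active = z-score of -3 or lower and OD600 up to 0.18 on both plates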;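 also: plate controls were untreated cells for no effect and reference antibiotic for full effect; stock transfer was 100 nL into about 80 µL; one replicate is shown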
PrP UTR inh: inhibition of PrP 5' UTR reporter expression; cell-based PrP 5' UTR mRNA reporter, plate reader; inhibition, % (test concentration not listed); 0.35% of 340,000 active;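 active = every replicate at 50% or more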;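 also: 0 = median of the neutral control wells; tested in H4 reporter cells; numbers are from one replicate; inactives centre near -14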
Mtb hypoxia inh: Mtb hypoxia fluorescent reporter inhibition; AID 1159583; 0.1% of 300,000 active; M. tuberculosis hypoxia-regulated fluorescent reporter, fluorescence; fluorescence inhibition, % (concentration not given with the values);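 active = 35 to 45% if threefold the growth effect, above 45% if 1.5-fold the growth effect; inactive = the rest, general growth blockers included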;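 also: wells of about 50 µL received 100 nL stock; 0% = vehicle wells and 100% = reference inhibitor wells; whole bacteria with a GFP reporter of the hypoxia response; strong numbers were not always called active; many hits fall short of the cut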
Bead autofluor: flagged as autofluorescent in microsphere protease counterscreen; fluorescence intensity (no concentration beside the values); AID 624483; 3.1% of 360,000 active; compound autofluorescence counterscreen, microsphere flow cytometry; stronger effect = higher value;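 active = at least 3 SD above the mean of all compounds, about 16000 in these data; inconclusive = too few beads counted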;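 also: 100 nL of 1 mM stock went into each well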
Mtb hypoxia inh growth: also measured in Mtb hypoxia inh; calls as there; growth inhibition, %; measured here: M. tuberculosis growth (absorbance);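 0% = vehicle and 100% = reference antibiotic; read after six days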
Active calls of the source: *; ? = inconclusive; . = no result given; & = joins results of further samples.

SMILES	Sa ugtP lethal	BJeLR viability	RN4220 kill	PrP UTR inh	Mtb hypoxia inh	Mtb hypoxia inh growth	Bead autofluor
N/N=C(\c1ccccc1)c1cc(Cl)ccc1N	.	-4	.	-10	.	.	3755
COc1ccc(Nc2oc(COc3ccccc3F)nc2C#N)cc1	6	-7	1.9	7	.	.	6143
COc1cccc(C2CC=C(C(=O)O)C(c3ccccc3)N2S(=O)(=O)c2ccc(C)cc2)c1 (stereo not given)	23	.	19	.	10	12	.
O=C(NCCCN1CCOCC1)c1cccc(S(=O)(=O)NCc2ccccc2)c1	2	3	3.5	-5	-1	3	?
COc1cccc(-c2nc(CS(=O)(=O)CC(=O)NCCN3CCOCC3)c(C)o2)c1	-9	-1	-2.6	0	-12	-15	5663
Cn1c(CNC(=O)C2CCCCC2)cc2ccccc21	9	0	1.8	-16	3	2	3372
O=C(CCC(=O)OCC(=O)c1ccc([N+](=O)[O-])cc1)Nc1ccccc1Cl	2	-16	7.5	-15	3	3	6004
Cc1ccc2c(CSc3nnc(N)s3)cc(=O)oc2c1	0	-8	6.1	-9	0	6	3402
CC1(C)C(=O)Nc2ccccc2N1C(=O)COC(=O)c1cc([N+](=O)[O-])ccc1N	-3	-4	-1.6	-15	-5	1	2100
CCCc1ccc(C(C)NC(=S)NC2CCCCC2)cc1 (stereo not given)	-26	4	-13	-3	11	30	5794
Cn1c(CCNC(=O)c2ccc(Cl)c(Cl)c2)nnc1SCc1ccc(Cl)c(Cl)c1	-11	-7	-0.5	-21	2	8	10464
CC1CCC(C(C)C)C(OC(=O)Cn2c(-c3ccccc3)[n+](C)c3ccccc32)C1 (stereo not given)	100*	-1&0	99*	-21&-8	.	.	10608&9957
N#CCCN(C(=O)COC(=O)CCNS(=O)(=O)c1ccccc1)c1ccccc1	2	.	-0.1	-7	-4	3	2844
CC1NC(=O)C(CCCN=C(N)N)NC(=O)c2cc([N+](=O)[O-])cc(I)c2NCCCC(C(N)=O)NC1=O (stereo not given)	3	.	2.9	.	15	14	.
CCN(CC)CCn1c2c(c(SCC(=O)Nc3nccs3)nc1=O)CCCC2	5	10	3.0	-10	12	-2	4692
CC(=O)Nc1ccc(C(F)(F)F)cc1Cl	-1	1	1.1	-13	-2	-4	4071
COC(=O)C1CC(c2c(OC)cc(OC)cc2OC)=NO1 (stereo not given)	-6	3	5.7	-32	1	7	3766
Cc1cc(C)c(C(=O)OCC(=O)NCc2cccs2)c(C)c1	8	-3	9.9	-19	0	0	4695
Cc1cc[n+](CC[n+]2ccc(C)cc2)cc1	4	-9	6.6	-5	3	2	3578
COc1ccc2cc(OCC(=O)NNC(=O)Nc3ccc(C(C)=O)cc3)ccc2c1	-8	7	4.7	-34	-1	5	5362
CC1CCN(C(=O)CSc2nc(N)c(NC(=O)c3ccccc3)c(=O)[nH]2)CC1	4	0	3.3	-21	3	7	5908
CC(C)(C)N=C1NC(=NC(C)(C)C)c2ccccc21	-16	9	-1.6	-13	-6	-4	7084
COc1cnc(-c2ccccn2)nc1Oc1ccc(F)cc1F	4	-7	5.6	-14	-3	-2	4974
O=[N+]([O-])c1cc2oc3c(c2c(C=NCc2ccccc2)c1O)CCCC3	-3	-7	1.1	-11	.	.	2543
CCOC(=O)N1CCN(C(=O)C2CCN(C(=O)c3cc4sccc4n3CC)CC2)CC1	-1	-3	-6.3	-14	2	2	5971

6 records drawn at random from the list so far:
SMILES	Sa ugtP lethal	BJeLR viability	RN4220 kill	PrP UTR inh	Mtb hypoxia inh	Mtb hypoxia inh growth	Bead autofluor
CCN(CC)CCn1c2c(c(SCC(=O)Nc3nccs3)nc1=O)CCCC2	5	10	3.0	-10	12	-2	4692
CC1CCN(C(=O)CSc2nc(N)c(NC(=O)c3ccccc3)c(=O)[nH]2)CC1	4	0	3.3	-21	3	7	5908
O=[N+]([O-])c1cc2oc3c(c2c(C=NCc2ccccc2)c1O)CCCC3	-3	-7	1.1	-11	.	.	2543
CCOC(=O)N1CCN(C(=O)C2CCN(C(=O)c3cc4sccc4n3CC)CC2)CC1	-1	-3	-6.3	-14	2	2	5971
Cn1c(CCNC(=O)c2ccc(Cl)c(Cl)c2)nnc1SCc1ccc(Cl)c(Cl)c1	-11	-7	-0.5	-21	2	8	10464
N/N=C(\c1ccccc1)c1cc(Cl)ccc1N	.	-4	.	-10	.	.	3755

Following part:
SMILES	Sa ugtP lethal	BJeLR viability	RN4220 kill	PrP UTR inh	Mtb hypoxia inh	Mtb hypoxia inh growth	Bead autofluor
Cc1ccc(-c2nnn(CC(=O)N(CC3CCCO3)C(C(=O)NCC3CCCO3)c3ccc(F)cc3)n2)o1 (stereo not given)	6	-1	12	-15	5	10	3529
COc1c(C)cc(Br)cc1C(=O)Nc1ccccc1C	2	-7	15	-30	4	4	4677
CN(C)CCNC(=O)c1ccc(Cl)s1	1	6	1.8	-6	9	-2	17028*
COc1ccc(N2Cc3cccc(C(=O)O)c3C2=O)cc1	-4	-4	-3.9	-46	4	12	5763
OCC1CCCN(C(=S)NCCc2ccccc2)C1 (stereo not given)	5	6	2.8	-24	.	.	4046
CC1(c2ccc(Cl)cc2)NC(=O)N(CC(=O)N2CCc3ccccc32)C1=O (stereo not given)	-7	.	-7.3	-8	-4	3	3576
CC(=O)N1CCN(Cc2nc3cc(NC(=O)c4ccccc4Cl)ccc3n2C)CC1	7	.	5.2	-19	-12	-2	4843
Cc1ccc(C=Nn2c(C)nnc2C)o1	3	.	1.8	.	7	13	.
O=C(CCNC(=O)c1ccc([N+](=O)[O-])cc1)Nc1cc(Cl)ccc1N1CCOCC1	6	.	2.0	-23	6	-7	8962
CCNC(=S)N1CCN(S(=O)(=O)c2ccc(Cl)s2)CC1	-4	.	2.7	12	6	5	2783
C=CCn1c(CNS(=O)(=O)c2ccc(Cl)cc2)n[nH]c1=S	13	5	2.9	-23	14	11	4388
Cc1ncoc1C(=O)N1CCc2c([nH]c3ccccc23)C1C(C)(C)C (stereo not given)	7	5	4.8	-11	12	5	4490
O=C(NCc1ccc(Cl)cc1)C1CCCN(S(=O)(=O)c2cnc[nH]2)C1 (stereo not given)	5	3	1.0	-19	.	.	5300
C[C@@H]([C@@H](O)c1ccccc1)N(C)C(=O)C(N)Cc1ccccc1 (stereo not given in full)	.	-13	.	1	.	.	3973
O=C(OCc1cccc([N+](=O)[O-])c1)c1cnccn1	1	-7	8.5	-10	-1	-4	2550
Cc1c(C(=O)NN=Cc2ccncc2)no[n+]1[O-]	7	.	3.4	.	-2	6	.
O=c1ccc(S(=O)(=O)N2CCCC2)cn1Cc1nc(-c2ccccc2)no1	-3	.	-0.9	-18	-2	3	3921
Cc1cccc(OCC(=O)NNS(=O)(=O)c2ccccc2F)c1	3	-15	5.5	-24	-1	0	4039
CCC(=O)N1CCc2cc(S(=O)(=O)NC(C(=O)NCc3ccc(C)cc3)C(C)C)ccc21 (stereo not given)	-3	-4	4.3	-13	-2	-1	?
O=C1c2ccccc2C(=O)N1Cc1cc(Cl)c(O)c([N+](=O)[O-])c1	3	-3	5.3	-9	9	8	4013
CCN(c1ccccc1)S(=O)(=O)c1nnc(NC(=O)C(C)C)s1	3	2	2.4	-18	-8	-29	3279
Cc1c(C(=O)N2CCCC2)c(S(=O)(=O)NCCc2ccccc2)c(C)n1C	-2	6	-0.2	-5	5	12	6395
COc1ccc(/C=N\N=C(N)N)cc1	.	8	.	-17	.	.	4357
CC(=O)NN=CC1=CCC2CC1C2(C)C (stereo not given)	0	.	4.5	.	2	13	.
O=C(CC1(O)C(=O)Nc2ccccc21)c1ccc2c(c1)OCO2 (stereo not given)	1	-9	1.9	2	-2	-9	8963
Remaining list, next part:
SMILES	Sa ugtP lethal	BJeLR viability	RN4220 kill	PrP UTR inh	Mtb hypoxia inh	Mtb hypoxia inh growth	Bead autofluor
CCCc1nc2c(sc3nc4c(cc32)COC(C)(C)C4)c(=O)o1	3	5	1.6	-13	3	2	4064
O=C(NNC(=O)c1ccccc1O)c1ccc(Cl)c(S(=O)(=O)N2CCc3ccccc32)c1	-6	6	18	-27	5	-3	6612
S=c1[nH]nc(-c2ccco2)n1N=Cc1cccs1	-5	.	3.1	.	-4	5	.
COc1cc(-c2nc(S(=O)(=O)c3ccc(Cl)cc3)c(N3CCOCC3)o2)cc(OC)c1OC	0	5	3.5	-23	5	11	11199
CN(C)CCCNCCNC(=O)/C=N\O	.	-3	.	-18	.	.	12508
O=C(COc1cccnc1[N+](=O)[O-])NCCc1ccc(Cl)cc1	2	8	11	-25	4	10	4258
Cc1c(C(O)CN2CCN(Cc3ccc4c(c3)OCO4)CC2)c2ccccc2n1C (stereo not given)	-1	9	3.2	-8	4	3	9605
CCN(C(=O)CCc1nc(-c2ccc(OC)cc2)no1)c1cc(OC)ccc1OC	0	4	3.1	-7	.	.	2809
COc1ccc(C(=O)N2CCCC(CCC(=O)NCc3ccccc3F)C2)c(OC)n1 (stereo not given)	2	-6	1.2	-9	6	9	5903
COc1ccc2nc(NC(=O)C3CCN(S(=O)(=O)c4cnc[nH]4)CC3)sc2c1	6	-2	1.6	1	-8	-3	3077
CCCC(C(=O)NC1CCCC1)N(CCCN1CCOCC1)C(=O)c1snc(C(N)=O)c1N (stereo not given)	2	-17	2.3	-10	8	8	9615
CCOP(=O)(C1=C(O)C(=O)C(C(C)(C)C)=CC1=O)c1ccccc1 (stereo not given)	11	.	2.6	-15	14	8	3193
COc1ccc(NC(=O)C2CCN(c3nc(-c4ccc(OC)cc4)no3)CC2)cc1	-3	0	-7.5	-37	8	10	6207
Cc1cccc(N(C(=O)c2nsc(Cl)c2Cl)C(C(=O)NC2CCCC2)c2ccc(O)cc2)c1 (stereo not given)	-3	-3	1.1	-7	8	-2	2172
Cc1ccc(C(=O)NCc2cccnc2)o1	13	9	3.0	-14	14	2	5307
COc1ccc(Nc2nnc(SCC(=O)NC(=O)Nc3ccc4c(c3)OCCO4)s2)cc1	.	-8	.	-15	.	.	4286
NS(=O)(=O)c1ccc(CCNC(=O)CN2CCN(c3ccc(F)cc3)CC2)cc1	8	14	6.0	-26	-2	5	2526
COc1ccc(-c2nc(CS(=O)(=O)CC(=O)NCc3ccc(F)cc3)c(C)o2)cc1	4	6	7.8	-26	17	7	6176
CC1CC(C)CN(S(=O)(=O)c2ccc3c(c2)oc(=O)n3CC(=O)NCCCOC(C)C)C1 (stereo not given)	5	-1	2.0	-13	10	0	5391
CCCCn1c(N)c(N(CC(C)C)C(=O)C2CC(=O)N(c3ccc4c(c3)OCCO4)C2)c(=O)[nH]c1=O (stereo not given)	1	-1	0.9	-12	-1	5	?
CC(Oc1cccc(Cl)c1)C(=O)NCc1ccc(S(N)(=O)=O)cc1 (stereo not given)	9	1	7.0	-22	21	7	4176
Cc1cc(/C=C2\NC(=S)N(C)C2=O)ccc1N1CCCC1	-5	1	9.6	-78	0	4	6349
CCOc1ccccc1C(=O)N1CCC(n2nnc3cc(C)ccc32)CC1	7	0	2.9	-17	6	4	9416
COc1ccc(S(=O)(=O)NCCCc2ccccc2)cc1	1	4	2.7	-14	0	10	4464
COCC(=O)N(C)c1nnc(-c2ccc([N+](=O)[O-])cc2)s1	-3	-1	1.8	-18	2	12	9427
The results go on.
SMILES	Sa ugtP lethal	BJeLR viability	RN4220 kill	PrP UTR inh	Mtb hypoxia inh	Mtb hypoxia inh growth	Bead autofluor
Cc1ccccc1NC(=O)COC(=O)c1ccc(S(C)(=O)=O)c([N+](=O)[O-])c1	7	-12	0.2	-13	14	12	2051
O=C(c1ccc(Cl)c(S(=O)(=O)N2CCCCC2)c1)N1CCN(c2ccccc2)CC1	1	2	-3.0	-3	3	-7	6045
CC(=NNC(=O)COc1ccc(C(C)(C)C)cc1)c1ccc(-n2ccnc2)cc1	6	.	2.5	.	6	7	.
O=C(NNS(=O)(=O)c1ccc(F)cc1)c1sccc1-n1cccc1	-4	-6	11	-4	-3	-4	3875
CC1CCN(c2c(NCC3CCC(C(=O)NCCc4ccc(Cl)cc4)CC3)c(=O)c2=O)CC1 (stereo not given)	4	5	4.7	2	-13	-14	.
COc1ccc(S(=O)(=O)N2c3ccccc3OCC2C)cc1 (stereo not given)	7	15	14	50	7	1	4586
COc1ccc(-c2[nH]c(-c3ccccc3)nc2SCC(=O)NCc2ccco2)cc1OC	8	-6	4.3	-12	5	5	6119
Cn1cc(C(=O)OCC(=O)NC2CCCC2)c2ccccc21	0	.	0.9	-25	-9	0	4239
